Source: PubChem BioAssay (ICCB-Longwood Screening Facility, Harvard Medical School)
Sa growth inh – inhibitors of Staphylococcus aureus growth at 42 °C | AID 720641 | S. aureus RN4220 growth, OD600, 20 h; active compounds read low | relative growth, % (no concentration beside the values) | actives 0.53% (n = 170,000);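 active means growth at 42 °C up to 50% and 20 or more points under that at 30 °C, or under 10% at both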;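 further: 300 nL library stock went into each well; scaled to the means of positive and negative controls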
GIV-Gai inh – inhibitors of GIV GBA-motif binding to rat Galpha-i3; actives 0.42% (n = 210,000); P08753; Galpha-i3/FITC-GIV peptide fluorescence polarization, 90 min; active compounds read low; scaled: aluminum fluoride 0%, vehicle 100%; AID 1224905; percent of control (FP), % (test concentration not listed);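 active means replicate mean at 85% of control or lower, very high polarization wells dropped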;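 further: lower values mean more displacement of the GIV peptide from Galpha-i3; wells of about 15 µL received 100 nL stock; the first replicate is given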
Target sequence (P08753 whole entry, looked up): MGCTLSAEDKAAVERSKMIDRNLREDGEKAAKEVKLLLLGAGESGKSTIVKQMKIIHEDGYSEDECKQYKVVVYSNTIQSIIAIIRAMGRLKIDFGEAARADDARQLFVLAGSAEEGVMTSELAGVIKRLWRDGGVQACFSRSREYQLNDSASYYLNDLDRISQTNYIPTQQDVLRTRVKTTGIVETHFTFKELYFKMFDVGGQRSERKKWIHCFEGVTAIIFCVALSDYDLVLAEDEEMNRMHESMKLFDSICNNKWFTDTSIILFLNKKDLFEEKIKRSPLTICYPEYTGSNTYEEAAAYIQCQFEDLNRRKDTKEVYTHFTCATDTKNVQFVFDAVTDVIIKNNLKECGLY
HCMV UL50-53 inh – cytomegalovirus nuclear egress complex inhibition; HTRF UL50-UL53 interaction, normalized percent inhibition; AID 1918969; actives 0.15% (n = 190,000); inhibition, % (concentration not given with the values);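 active means both replicates at 50% or more, plus weaker picks with an unusually low signal ratio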;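 further: stock transfer was 100 nL into about 20 µL; 0% = negative control wells and 100% = wells with untagged competitor protein; inactives centre near -12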
Sa growth inh second temp – second read-out of Sa growth inh, no call of its own (marks repeat the call); relative growth, %; measured here: growth at 30 °C;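 optical density after 20 h as mean of two plates; 100% = untreated growth and lower means inhibition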
* hit, by the source's call; / = no result given; & = joins results of further samples. An unsorted share of the library. About 0.83% of those tested had a hit in this group.

SMILES	Sa growth inh	Sa growth inh second temp	GIV-Gai inh	HCMV UL50-53 inh
CCOC(=O)N1CCC(N(CCOC)C(=S)Nc2ccccc2F)CC1	84	75	102	-22
Cc1ccnc(N2CCC(C(=O)O)CC2)n1	101	94	106&100	10&-13
COc1cccc(C(=O)NCc2cccnc2)c1	97	80	103	-11
Cc1sc(NC(=O)Cn2nc(C(F)(F)F)cc2C)c(C(N)=O)c1C	84	81	/	-6
Cc1nccn1-c1ccc(C(F)(F)F)cc1NC=O	103	97	/	-20
Cn1c(SCc2cc(F)ccc2F)nnc1-c1sc2ncccc2c1N	/	/	100	-18
NC(=O)COC(=O)c1n[nH]c2ccccc12	88	93	/	-20
NC(=O)Cn1c(CCCCc2nc3ccccc3n2CC(N)=O)nc2ccccc21	102	87	100	-5
CNC(=O)Nc1ccccc1NC1=C(C(=O)OC)CSC1	30	14	111	-64
CC(C)OC(=O)Cn1c(C(=O)OC(C)C)cc2c1ccn2-c1ccc(F)cc1	96	90	103	-15
O=C(NC(=O)c1ccccc1)OC1CCS(=O)(=O)C1 (stereo not given)	95	91	/	6
CC(C)OC(=O)c1cc2cc(Br)ccc2oc1=O	95	81	95	/
O=C(CN1C(=O)CC(c2ccccc2Cl)=Nc2ccccc21)Nc1ccccc1	/	/	99	-20
CN(Cc1ccccc1)C(=O)c1nc(-c2ccccc2)n(-c2cccc(Cl)c2)n1	/	/	103	-10
Cc1cccc(N(C)c2nc3ccc(C)cc3n3cnnc23)c1	104	82	104	-32
CCCc1cc(=O)[nH]c(/N=C(\N)Nc2cccc(C)c2)n1	95	91	105	/
CCOc1ccc(-c2nonc2NC(=O)C(C)Oc2ccc(Cl)c(C)c2)cc1C (stereo not given)	/	/	103	-18
Cc1ccc(N2CCN(Cc3nnc(-c4ccccc4F)o3)CC2)c(C)c1	104	84	101	0
O=C(NC1=NCCS1)C1CC=CCC1 (stereo not given)	98	96	/	-22
COc1ccc(N2C(=O)CC(N(Cc3ccc4c(c3)OCO4)C(=O)c3cccc(F)c3)C2=O)cc1 (stereo not given)	98	89	103	2
CC1CCCC(C)N1C(=O)COC(=O)C12CC3CC(CC(C3)C1)C2 (stereo not given)	86	89	/	-31
N#Cc1ccc(OCC(O)CN2CCC(O)CC2)cc1 (stereo not given)	76	83	/	-36
CS(=O)(=O)N1CCc2ccccc2C1	90	84	106	/
N#CC(=Nc1ccc2c(c1)OCCO2)C1=C(O)c2ccccc2C1=O	112	75	105	-6
Cc1ccc(S(=O)(=O)Nc2ccc(OCc3cc(=O)n4ccsc4n3)cc2)cc1	110	94	104	0
CNC(=O)N1Cc2c(C)nn(-c3ccccc3)c2-n2cccc2C1c1cccc(C)c1 (stereo not given)	/	/	103	-10
COCC(C)N=CC1=C(O)CC(C)(C)CC1=O (stereo not given)	95	91	99	-11
Cc1c(NC(=S)N2c3ccccc3CC2C)c(=O)n(-c2ccccc2)n1C (stereo not given)	101	99	/	12
Cc1cc(C)c(/C=C/c2onc(C)c2S(=O)(=O)N2CCCC(C(=O)Nc3nc(C)cs3)C2)c(C)c1 (stereo not given)	/	/	96	-12
O=C(CN1C(=O)C2CCCCN2c2ccc(C(=O)N3CCCCC3)cc21)NC1CCCC1 (stereo not given)	/	/	107	-34
CC(=O)Nc1cccc(N=Cc2cc(I)cc(C)c2O)c1	105	89	103	/
CCc1nn(CCCC(=O)NCc2ccc(OC(C)C)cc2)c(=O)c2cc3occc3n12	103	91	99	-15
C/C(Cl)=C/CN1CCOCC1	95	91	98	6
COc1ccc2ncc(OC(C)=O)cc2c1	112	71	99	-15
COC(=O)c1ccc(NC(=O)Cn2c(=O)oc3ccccc32)cc1	92	93	109	-48
OC(CNCc1csc2ccccc12)c1ccccc1 (stereo not given)	116	91	105	-10
O=C(COC(=O)c1cccs1)Nc1ccccc1C(F)(F)F	93	101	/	19
Cc1ccc(-n2c(=O)c3oc4ccccc4c3n(Cc3cccc(F)c3)c2=O)cc1C	93	97	101	/
CN(Cc1nc(-c2ccccc2)no1)C(=O)CSc1ccccc1	105	89	103	-27
CN(C)c1ccc(C2CC(c3ccc(Br)cc3)=NN2C(=O)CCCC(=O)O)cc1 (stereo not given)	/	/	95	-71

An excerpt from above in order of length of the SMILES, smallest number first:
SMILES	Sa growth inh	Sa growth inh second temp	GIV-Gai inh	HCMV UL50-53 inh
OC(CNCc1csc2ccccc12)c1ccccc1 (stereo not given)	116	91	105	-10
O=C(NC(=O)c1ccccc1)OC1CCS(=O)(=O)C1 (stereo not given)	95	91	/	6
O=C(COC(=O)c1cccs1)Nc1ccccc1C(F)(F)F	93	101	/	19

Further compounds follow:
SMILES	Sa growth inh	Sa growth inh second temp	GIV-Gai inh	HCMV UL50-53 inh
O=C(Nc1ccc(C(F)(F)F)cc1)C1(c2cccs2)CCOCC1	134	85	96	/
CCS(=O)(=O)c1ccc(OCc2cc(=O)n3oc(C)cc3n2)c(NC(=O)COc2ccccc2)c1	/	/	102	-11
CNC(=O)c1c2c(nc3ccc(Br)cc13)CCCC2	82	88	/	-16
O=C(c1ccccc1)N1CCn2c1nc1ccccc12	101	82	/	-4
Cc1cc(C)c2c(n1)SCCN2C(=O)Nc1ccc(C(=O)Nc2cc(Cl)ccc2C)cc1	114	89	110	/
COc1ccc(NC(=O)Cc2nc(-c3ccc(OC)cc3)no2)cc1	83	91	95	-35
O=C(CSc1nnc(Cc2ccccc2)o1)C12CC3CC(CC(C3)C1)C2	118	101	/	-16
CCS(=O)(=O)c1cccc(C(=O)Nc2nnc(-c3ccc4c(c3)OCCO4)o2)c1	77	73	106	12
CCn1cc(C(=O)OC)c(=O)c2ccc(C)nc21	94	99	107	-11
O=C(O)c1ccc(CNCc2cccc(Oc3ccccc3)c2)cc1	114	92	104	/
Nc1nc(NCc2c(Cl)cccc2Oc2ccccc2)n[nH]1	105	84	102	-10
N#CCSc1nnc2n(-c3ccccc3)c(=O)c3ccccc3n12	76	93	/	-11
CC1(CSc2ccccc2C(=O)Nc2nc3ccccc3[nH]2)NC(=O)NC1=O (stereo not given)	66	83	/	-22
Oc1ccc(/C=N/N2CCN(Cc3cccc4ccccc34)CC2)cc1O	104	93	/	-19
CC(=O)C1=C(c2cccc([N+](=O)[O-])c2)N(C(C)=O)n2c(nnc2-c2ccc(C)cc2)S1	132	92	103	/
O=C(Cc1ccccc1)c1ccccc1C(=O)NCc1ccc(F)cc1	99	117	/	-8
CCc1sc2sncc2c1Br	99	76	/	82
N#C/C(=N\O)C(=O)c1ccco1	87	78	100	-64
CN(CCCN)Cc1ccccc1	85	95	/	-14
O=C(Cc1ccccc1)Nc1ccncc1	84	80	101	-301

Six compounds drawn at random from those above:
SMILES	Sa growth inh	Sa growth inh second temp	GIV-Gai inh	HCMV UL50-53 inh
CCS(=O)(=O)c1cccc(C(=O)Nc2nnc(-c3ccc4c(c3)OCCO4)o2)c1	77	73	106	12
O=C(Cc1ccccc1)c1ccccc1C(=O)NCc1ccc(F)cc1	99	117	/	-8
CNC(=O)c1c2c(nc3ccc(Br)cc13)CCCC2	82	88	/	-16
CCS(=O)(=O)c1ccc(OCc2cc(=O)n3oc(C)cc3n2)c(NC(=O)COc2ccccc2)c1	/	/	102	-11
CN(CCCN)Cc1ccccc1	85	95	/	-14
N#CCSc1nnc2n(-c3ccccc3)c(=O)c3ccccc3n12	76	93	/	-11

The main list resumes with the six entries that preceded the break.
SMILES	Sa growth inh	Sa growth inh second temp	GIV-Gai inh	HCMV UL50-53 inh
CC(=O)C1=C(c2cccc([N+](=O)[O-])c2)N(C(C)=O)n2c(nnc2-c2ccc(C)cc2)S1	132	92	103	/
O=C(Cc1ccccc1)c1ccccc1C(=O)NCc1ccc(F)cc1	99	117	/	-8
CCc1sc2sncc2c1Br	99	76	/	82
N#C/C(=N\O)C(=O)c1ccco1	87	78	100	-64
CN(CCCN)Cc1ccccc1	85	95	/	-14
O=C(Cc1ccccc1)Nc1ccncc1	84	80	101	-301
COc1ccc(-n2c(=O)c3c4c(sc3n(Cc3ccc(C)cc3C)c2=O)CCC4)c(OC)c1	106	89	98	5
CCc1cccc(NC(=O)CN(C)S(=O)(=O)c2ccc3c(c2)CCCN3C(C)=O)c1	118	84	108	/
COc1ccccc1N(Cc1nc2nc(C)cc(=O)n2[nH]1)C(=O)COc1ccccc1	/	/	101	-8
CCSC1(SCC)N=C(N)C2(C#N)C(c3ccccc3Br)C12C#N (stereo not given)	105	95	106	-2
O=C(c1cc(C2CC2)nn1-c1ccccc1)N1CCN(c2ccccn2)CC1	99	101	/	-11
O=C(Nc1ccccc1C(=O)Nc1cccnc1)c1ccccc1	105	85	99	-4
Cc1ccc(C(=O)NC2CS(=O)(=O)CC2NC(=O)c2ccc(C)c(Cl)c2)cc1Cl (stereo not given)	84	81	/	8
CC(Oc1ccc(C#N)cc1)C(=O)N1CC=C(c2ccccc2)CC1 (stereo not given)	98	89	/	-7
CC(C)(C)n1nc2c(c1NC(=O)Nc1ccccc1)CSC2	88	71	105	-14
Cc1c(CCN)sc2nc(-c3ccc(Cl)cc3)nn12	73	32	101	-33
COc1ccccc1CNS(=O)(=O)c1cc(Br)cc2c1N(C(=O)C1CC1)CC2	97	89	99	-15
Cc1n[nH]c(C)c1CCc1nc2c3ccccc3nc(SCC#N)n2n1	107	96	105	1
CCCCNC(=O)c1cc(=O)[nH]c2ccc(Br)cc12	106	102	107	7
CCOc1ccc(NC(=O)Cn2ncc3c2-c2cc(C)ccc2OC3)cc1	102	77	105	-5
COc1ccc(NC(=O)C2CCn3c(nc4ccccc43)C2)c(OC)c1 (stereo not given)	/	/	105	-41
O=C1/C(=C/c2cccs2)SC(=S)N1Cc1ccccc1	98	85	107	/
CCOC(=O)c1cnc2c(ccc3ccccc32)c1NCCOC(=O)c1cccnc1	101	65	98	/
Cc1nnc(SC(C)C(=O)NC(C)(C#N)C(C)C)n1-c1ccccc1 (stereo not given)	100	91	/	-6
c1ccc2c(c1)CCN2Cc1csc2c1CCCC2	113	95	107	/
O=C(NCC1CCCO1)c1ccc2c(=O)n3c(nc2c1)CCCCC3 (stereo not given)	88	85	109	7
Cc1cc(C)c(NC(=O)Cn2nnc(-c3nc(-c4ccccc4)no3)c2N)c(C)c1	136	90	109	/
CC(CNC(=O)c1cc(C2CC2)[nH]n1)c1ccccc1 (stereo not given)	94	75	101	-31
O=C(Cc1ccccc1)c1c[nH]c(C(=O)NC2CCCC2)c1	/	/	105	8
O=C(NCC1CCCO1)C1c2ccccc2C(=O)N1CCc1ccccc1 (stereo not given)	95	89	101	-9
CCN(C(=O)c1ccc2c(=O)n3c(nc2c1)CCCCC3)c1cc(OC)ccc1OC	105	90	106	-2
COc1ccc2oc(=O)c(-c3cn4c(n3)sc3cc(F)ccc34)cc2c1	104	78	102	/
Cc1c(CO)cnn1-c1ccc(F)cc1	97	84	102	-10
COc1ccc(-c2ccc(SCc3nc(-c4cc(OC)c(OC)c(OC)c4)no3)nn2)cc1OC	/	/	101	-12
COc1ccc(/C=C(/C#N)S(=O)(=O)C2CCCCC2)cc1	82	92	/	-64
O=C(CN1C(=O)COc2ccc(Cl)cc21)Nc1ccc(F)cc1	106	95	106	3
Cn1c2ccccc2c2nnc(SCCC(=O)N3CCCC3)nc21	97	78	110	-37
S=C(Nc1ccccc1)N1CCCCC1	90	79	/	-19
CCC(=O)C1=C(c2ccccc2)N(C(=O)CC)n2c(nnc2C2CCCCC2)S1	135	87	99	/
Cc1ccc(CSCC(=O)O)cc1	84	93	101	-1
Cc1cccn2c(=O)c(C(=O)N3CCN(c4ccc(Cl)cc4)CC3)cnc12	92	95	100	/
COc1ccc(-c2cn3cc(Cl)ccc3n2)cc1OC	118	80	/	-29
CSc1ncccc1C(=O)OCc1ccccc1	89	104	/	2
Cc1cccc(NC(=O)CC(=O)c2ccccc2)c1	93	72	/	-7
CCC(C)NC(=O)c1oc2ccc3c(c2c1C)C(=O)CC1(CCCC1)O3 (stereo not given)	89	77	109	-21
CN(C)c1ccc(-c2nc3cc(NC(=O)c4ccc(Br)cc4)ccc3o2)cc1	/	/	105	-2
CCOC(=O)Cc1c[nH]c2ccccc12	95	93	106	-31
O=C(CN1C(=O)CSc2ccc(C(=O)N3CCCC3)cc21)Nc1ccc(Cl)cn1	/	/	117	-15
Cc1cc(C(=O)O)c(C)o1	97	91	/	-4
COc1ccc(-c2noc(CNC(=O)COc3cccc(C)c3C)n2)cc1	108	93	105	-17
COc1cc(Cl)c(C)cc1NC(=O)CNC(=O)Cn1ccc2ccccc2c1=O	92	98	103	-3
Brc1ccc(-c2nnco2)cc1	99	100	105	-9
Cc1ccc(CNC(=O)CN2C(=O)CSc3ccc(S(=O)(=O)N4CCCC4)cc32)cc1	132	75	110	/
CC1=C(C(N)=O)C(c2cccs2)NC(=S)N1 (stereo not given)	90	85	96	/
CCOC(=O)c1oc2ccccc2c1C	84	87	98	/
O=C1C(Nc2ccc(O)cc2)=C(n2nnc3ccccc32)C(=O)c2ccccc21	18	7	/	35
CC1CN(C(=O)N2CCC(C(=O)NCCC3=CCCCC3)CC2)c2ccccc2O1 (stereo not given)	79	83	111	-5
O=C(CN1C(=O)c2ccccc2C1=O)NCc1cc(=O)n2nc(-c3ccccc3Cl)sc2n1	/	/	100	-7
CC(CCc1ccccc1)NC(=O)c1ccc2ccccc2c1 (stereo not given)	103	86	106	/
